Calb biofilm kill – mixtures killing C. albicans biofilm; C. albicans biofilm persisters + clotrimazole, fluorescence viability; primary screen in compound mixtures of four per well; inhibition, % at 7.6 µM; 120,000 tested, 0.02% active;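 active means inhibition above 30.3% in the primary screen of four-compound pools, then above 30% when the compound was retested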;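 further: compounds exposed to preformed 24 h biofilms for 48 h; the number belongs to the whole pool; some results filed as inactive read as strong as hits; inactives centre near 12; 0% = biofilm with clotrimazole alone and 100% = kill control; retested singly at about 60 µM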
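Incubation: 24 h biofilm formation, then 48 h compound exposure, 37 °C | Material: C. albicans biofilms | Buffer or medium: RPMI/MOPS medium, pH 7.0 | Measured by: 2-h Alamar Blue fluorescence, 535/590 nm excitation/emission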
Active calls of the source: *. A portion of the library (hit frequency here may not be typical).

SMILES | Calb biofilm kill
NS(=O)(=O)c1ccc(NC(=O)CSc2nc3ccccc3[nH]2)cc1 | 3
Cc1ccc(Cl)c(OC(=O)Cn2cnc3c2c(=O)n(C)c(=O)n3C)c1 | 0
CCOc1cccc(/C=N/NC(=S)Nc2ccccc2[N+](=O)[O-])c1O | 12
c1ccc2c(c1)nnn2-c1ncnc2sccc12 | 23
C=CCNC(=S)N/N=C(\C)c1cccnc1 | 14
CS(=O)(=O)N(CC(=O)N1CCCC1)Cc1ccccc1 | 12
Cc1cc(/C=C(\C#N)C(=O)OCC(=O)Nc2ccc(OC(F)F)cc2)c(C)n1CC(C)C | 12
COc1cc(CN(CCc2c(C)[nH]c3ccc(C)cc23)C(=S)NC(C)(C)C)cc(OC)c1OC | 14
COc1cc(/C=N\NC(=O)C2CC3C=CC2C3)ccc1O (centres undefined) | 9
COC(=O)c1sc2nc(C)cc(-c3ccccc3)c2c1N | 15
COc1ccc(C(=O)N2CCc3c([nH]c4ccccc34)C2C(F)(F)F)cc1 (centres undefined) | 8
COCCN(C(=S)Nc1c(C)cccc1C)C(C)c1ccco1 (centres undefined) | 24
CSc1ccc(CN2CCN(C3CCCC3)C(CCO)C2)cc1 (centres undefined) | 10
Cc1ccc(-c2nnc(-n3nc(C)cc3C)c3ccccc23)cc1 | 4
CSCC[C@H](NC(=O)Nc1ccc(S(N)(=O)=O)cc1)C(=O)O | 10
O=C(NC1CCc2ccccc21)c1cc(COc2ccc(F)cc2Cl)on1 (centres undefined) | 6
CCOc1cc2c(Cl)ncnc2c(OCC)c1OCC | 22
O=C(c1cccc(Cl)c1)C1CCCN(C(=O)c2ccoc2)C1 (centres undefined) | 16
Cc1c(NS(=O)(=O)c2ccc(Cl)c(C(=O)OC(C)C(=O)N3CCOCC3)c2)c(=O)n(-c2ccccc2)n1C (centres undefined) | 13
CCN(CC(=O)Nc1c(F)cccc1F)C(=O)Cc1ccccc1 | 11
Cc1c(Cc2ccccc2)sc(/N=C/c2ccc3ccccc3c2)c1C(N)=O | 16
CCCCOC(=O)/C=C/c1c(C)[nH]c(=O)[nH]c1=O | 8
CC(Oc1ccccc1)c1ccn[nH]1 (centres undefined) | 16
O=[N+]([O-])c1ccc(N2CCN(c3ccccc3O)CC2)c(Cl)c1 | 11
CC12CCC(C(=O)Nc3ccccc3-n3cccc3)(CC1=O)C2(C)C (centres undefined) | 10
The list continues:
SMILES | Calb biofilm kill
Cc1ccc(S(=O)(=O)Nc2ccc(NC(=O)c3c(F)c(F)c(F)c(F)c3F)cc2)cc1 | 2
CCOC(=O)CC(=O)Nc1ccn[nH]1 | 3
COc1ccc(/C(C)=N/OCC(=O)Nc2nc3ccccc3s2)cc1 | 7
Cc1ccc(S(=O)(=O)N(C)Cc2ccc(C(=O)N/N=C/c3ccc(OC(F)F)cc3)cc2)cc1 | 14
O=C(c1cn[nH]c1)N1CCc2c([nH]c3ccccc23)C1c1c(F)cccc1Cl (centres undefined) | 11
CCc1cccc(CC)c1NC(=O)COC(=O)c1cccc(S(=O)(=O)N2CCc3ccccc3C2)c1 | 11
COc1ccc(/C=N/NC(=O)Cn2cnc3ccccc3c2=O)cc1 | 20
CC(=O)Nc1ccc2c(c1)c1ccccc1n2C(C)=O | -6
Cc1ccc(Nc2nc(CSc3nnc(-c4ccncc4)n3C)cs2)cc1 | -6
O=C1OC(Nc2cc(Br)cc3cccnc23)c2ccccc21 (centres undefined) | 26
O=C(NNC(=O)c1cc2cc(OC(F)(F)F)ccc2[nH]1)c1cccc(C(F)(F)F)c1 | 24
COc1ccc2[nH]c(C(=O)Nc3cccc(C)n3)cc2c1 | 14
COC(=O)c1ccc2nc(NC(=O)C(C)(C)C)sc2c1 | 4
OC1CCCN(CC(O)COC(c2ccccc2)c2ccccc2)C1 (centres undefined) | 19
CCC(=O)c1ccc(/C=C/c2nc3ccccc3n2C)o1 | 16
CN(C(=O)c1cccc(COc2ccc(Cl)cc2Cl)c1)c1ccccc1 | 3
N#Cc1cccnc1N1CCC(C(N)=O)CC1 | 15
O=C(O)c1cc(-c2ccccc2)n(-c2ccc(Cl)cc2)n1 | 9
Cc1ccc(C(=O)OCc2nc(N)nc(Nc3ccccc3C)n2)cc1 | 15
O=C(c1ccc(Cl)cc1)[C@@H]1[C@@H]2C(=O)N(c3ccc(Cl)cc3)C(=O)[C@@H]2C2c3ccccc3C=NN21 (some centres undefined) | 7
CC(=O)Oc1ccc(C(=O)Nc2cccc(C(=O)NC(C)(C)C)c2)cc1 | 24
O=C(Nc1ccc(Cl)c(Cl)c1)N1CCSCC1 | 11
O=C(N/N=C/c1ccc2ncccc2c1)c1ccco1 | 4
C/C(CC(=O)Nc1cccc(Cl)c1C)=N\NC(=O)Cc1csc(N)n1 | 4
CCOC(=O)C1CCN(CC(O)COCc2cccs2)CC1 (centres undefined) | 21
Going on with the list.
SMILES | Calb biofilm kill
CC(NC(=O)Cc1ccccc1)c1ccc(F)cc1 (centres undefined) | -2
CCOC(=O)c1ccccc1Cc1nc2ccccc2c(=O)[nH]1 | 17
CC(C)(CNS(C)(=O)=O)SCc1ccc(Cl)cc1 | -1
ONC(=Nc1ccccc1Cl)c1ccccc1Cl | 7
CCn1c(O)c(N=NC(=S)NCC2CCCO2)c2ccccc21 (centres undefined) | 11
N#Cc1c(-c2ccccc2)cc(C2CC2)nc1SCC(=O)O | 11
CCOc1ccc(CCNC(=O)c2nnc(Cc3ccc(F)cc3)o2)cc1OCC | 5
CCN(CC)C1=N/C(=C\c2ccco2)C(=O)N1c1ccccc1 | 4
COc1cc2nc(SCC(=O)c3ccc(Br)cc3)n3nc(C)nc3c2cc1OC | 9
c1ccc2c(Nc3ccc4c(c3)OCCO4)c3c(nc2c1)CCC3 | 5
O=C(N/N=C/C(Br)=C\c1ccccc1)c1cccs1 | 24
COc1ccc(-n2c(=S)[nH]c3cc(C(=O)NCCCN4CCOCC4)ccc3c2=O)c(OC)c1 | 21
COC(=O)c1ccc(-c2noc(CN(Cc3ccncc3)CC3CCCO3)n2)cc1 (centres undefined) | 13
COCC1CCN(c2nc3nonc3nc2N2CCSCC2)C1 (centres undefined) | 21
CCCS(=O)(=O)N1CCN(Cc2ccccc2[N+](=O)[O-])CC1 | 13
Cc1ccc(-n2c(SCC(=O)NCc3ccco3)nc3c(sc4ccccc43)c2=O)cc1 | 2
CC(=O)Nc1cccc(NC(=S)Nc2ccc(F)cc2F)c1 | 8
CCOC(=O)c1sc(N)c(C(=O)Nc2ccccc2)c1C | 23
COC(=O)c1cn(NC(=O)c2ccccc2[N+](=O)[O-])c(=O)c2ccccc12 | 10
CC(C)(C)C(C(Oc1ccc(Cl)cc1)n1cncn1)n1nnnc1C(c1cccc(Cl)c1)N1CCCCC1 (centres undefined) | 15
Cc1ccccc1NC(=O)C1CCCN1/C=C/C(=O)C(F)(F)F (centres undefined) | 8
COCCn1c(=NC(=O)/C=C/c2ccccc2Cl)sc2cc(NC(C)=O)ccc21 | 3
O=S(=O)(NCc1cccnc1)c1cccn1-c1ncc(C(F)(F)F)cc1Cl | 3
O=C(NCC1CCCO1)c1ccc2c(=O)n(-c3ccccc3)c(=S)[nH]c2c1 (centres undefined) | 10
Cc1cc(=O)[nH]c2c(C)c(Cl)ccc12 | 15
Additional entries follow:
SMILES | Calb biofilm kill
Cc1ccc(N(CC(=O)N/N=C/c2ccc(OC3CSC3)cc2)S(=O)(=O)c2ccccc2)c(C)c1 | 12
CCOc1ccc(Br)cc1S(=O)(=O)N1CCC(C(=O)O)CC1 | 16
FC(F)(F)c1cc(N2CCN(Cc3ccccc3)CC2)c2ccccc2n1 | 24
O=C(c1cccnc1)N1N=C(c2cccs2)CC1c1ccc(F)cc1 (centres undefined) | 12
O=C(CNC(=O)c1ccc(N2C(=O)c3ccccc3C2=O)cc1)OCC(=O)c1cccc2ccccc12 | 11
COc1ccccc1-n1ccnc1SCC(=O)NCc1ccco1 | 16
COc1ccccc1OCC#CCNC1CCCCC1C (centres undefined) | 2
Cc1ccc(N=Nc2[nH]c3ccccc3c2O)cc1 | 23
O=C(Nc1nc(-c2ccc(Oc3ccccc3)cc2)cs1)C1=COCCO1 | 12
COc1ccc(C2C3=C(CC(C)(C)CC3=O)OC(N)=C2[N+](=O)[O-])cc1 (centres undefined) | 16
Cc1cc2oc(C(=O)Nc3ccc(S(=O)(=O)N4CCCC(C)C4)cc3)cc(=O)c2cc1Cl (centres undefined) | 14
O=C1C(C=Nc2ccc(F)cc2)=C(O)c2ccccc21 | -1
CCOC(=O)c1c(-c2ccccc2)csc1NC(=S)NC | -3
Cc1[nH]n(-c2ccccc2)c(=O)c1/C=N/NC(=O)c1ccoc1C | 9
O=C(CSc1ccc(-c2ccc(Cl)cc2)nn1)Nc1ccc2c(c1)OCCO2 | 2
Cc1nc2cc(NC(=O)Nc3ccc(Br)cc3)ccc2o1 | 9
CCC(C)NCCOc1ccc(C(C)(C)c2ccccc2)cc1 (centres undefined) | 7
CC(Sc1nc(=O)cc(N)n1CCc1ccccc1)C(=O)NCc1ccccc1 (centres undefined) | 11
O=C1CC(c2ccccc2)=NN1c1nc(-c2ccccc2)cs1 | 7
CCOC(=O)C1(CC2CCCCO2)CCN(S(=O)(=O)c2ccccc2)CC1 (centres undefined) | 12
CCCCNC(=O)C1c2cc(OC)c(OC)cc2C(=O)N(C)C1c1cccs1 (centres undefined) | 4
O=C(CSc1ccc2ccccc2n1)NCc1ccc2c(c1)OCO2 | 6
Cc1ccc(S(=O)(=O)Oc2ccc(/C=N/NC(=O)c3cccnc3)cc2)cc1 | 26
O=C(CN1CCc2ccccc2C1)Nc1cccc(S(=O)(=O)N2CCCC2)c1 | 13
O=C(CSc1ccc(F)cc1)NC(=O)NCc1ccccc1 | 0
The list goes on.
SMILES | Calb biofilm kill
O=C(O)CNC(=S)N(Cc1ccccc1Cl)C1CCCC1 | 13
Cc1ccc(N(CN2C(=O)C3C4CCC(C4)C3C2=O)C(=O)c2ccco2)cc1 (centres undefined) | 24
CCOC(=O)C1(Cc2ccccc2)CCN(Cc2csc(C(C)=O)c2)CC1 | 12
CCOC(=O)C1=C(C)N(c2ccccc2)C(=O)/C1=C\c1cccs1 | 14
COc1ccc(C2C([N+](=O)[O-])=C(C)N(C)C(=O)N2C)cc1OC (centres undefined) | 0
O=S(=O)(NCCCc1ccccc1)c1ccc(Cl)cc1 | 10
Cc1ccc(-c2csc(C3=C(O)CN(NC(=O)c4ccco4)C3=N)n2)cc1 | 16
COc1ccc(C(=O)CC(=O)C(=O)NCCc2cccc(C)c2)cc1 | 16
Cc1c(C#N)c(NC(=O)CCl)n(Cc2ccc(F)cc2)c1C | 13
COc1cc(NC(=S)NC(=O)c2ccc(F)cc2)ccc1NC(=O)c1ccco1 | 20
O=C(Oc1ccccc1N1CCOCC1)c1sccc1Br | 8
Cc1ccc(N=C2NC(=O)/C(=C/C=C/c3ccco3)S2)cc1 | -17
Nc1nncn1C(=O)c1ccc(Cl)cc1Cl | 11
CC12CCC(C(=O)Nc3cccc(Cl)c3Cl)([C@H](Br)C1=O)C2(C)C (some centres undefined) | 21
O=C1c2ccccc2C(=O)c2c1cccc2N1CCCC1 | -13
CN1CCc2c(sc(N)c2C(=O)O)C1 | 17
CCN(CC)S(=O)(=O)c1cc(C(=O)OCC(=O)Nc2c(F)cccc2F)ccc1F | 4
CCCCOc1ccc(C(=O)C(CN2CCOCC2)c2ccccc2)cc1 (centres undefined) | 2
Cc1ccc(NC(=O)CN(c2ccccc2)S(=O)(=O)N(C)C)cc1C | 8
Cn1c(COc2ccc3ccccc3c2)nnc1SCC(=O)OC1CCCCC1 | 5
COC(=O)c1nn(-c2cccc(C)c2)c2nnc(Cc3ccc(C)cc3)c(=O)n12 | 12
CC(C)NC(=O)c1ccccc1NC(=O)CCc1ccccc1 | 8
CCC(O)(CC)C(=O)N=Nc1c(O)[nH]c2ccccc12 | 12

For reference, 19 of the compounds above.
SMILES | Calb biofilm kill
COc1ccc(C2C([N+](=O)[O-])=C(C)N(C)C(=O)N2C)cc1OC (centres undefined) | 0
O=S(=O)(NCCCc1ccccc1)c1ccc(Cl)cc1 | 10
Cc1ccc(-c2csc(C3=C(O)CN(NC(=O)c4ccco4)C3=N)n2)cc1 | 16
COc1ccc(C(=O)CC(=O)C(=O)NCCc2cccc(C)c2)cc1 | 16
Cc1c(C#N)c(NC(=O)CCl)n(Cc2ccc(F)cc2)c1C | 13
COc1cc(NC(=S)NC(=O)c2ccc(F)cc2)ccc1NC(=O)c1ccco1 | 20
O=C(Oc1ccccc1N1CCOCC1)c1sccc1Br | 8
Cc1ccc(N=C2NC(=O)/C(=C/C=C/c3ccco3)S2)cc1 | -17
Nc1nncn1C(=O)c1ccc(Cl)cc1Cl | 11
CC12CCC(C(=O)Nc3cccc(Cl)c3Cl)([C@H](Br)C1=O)C2(C)C (some centres undefined) | 21
O=C1c2ccccc2C(=O)c2c1cccc2N1CCCC1 | -13
CN1CCc2c(sc(N)c2C(=O)O)C1 | 17
CCN(CC)S(=O)(=O)c1cc(C(=O)OCC(=O)Nc2c(F)cccc2F)ccc1F | 4
CCCCOc1ccc(C(=O)C(CN2CCOCC2)c2ccccc2)cc1 (centres undefined) | 2
Cc1ccc(NC(=O)CN(c2ccccc2)S(=O)(=O)N(C)C)cc1C | 8
Cn1c(COc2ccc3ccccc3c2)nnc1SCC(=O)OC1CCCCC1 | 5
COC(=O)c1nn(-c2cccc(C)c2)c2nnc(Cc3ccc(C)cc3)c(=O)n12 | 12
CC(C)NC(=O)c1ccccc1NC(=O)CCc1ccccc1 | 8
CCC(O)(CC)C(=O)N=Nc1c(O)[nH]c2ccccc12 | 12

Screens from PubChem BioAssay.
